High-throughput results from PubChem BioAssay.
VDR inh = vitamin D3 receptor (human) inhibition; VDR-SRC2-3 peptide fluorescence polarization, 2 h; AID 504847; Potency, µM, without a hit: max response, negative = inhibition, hits mostly inhibitors; 0.93% of 400,000 active; active = well fitted inhibition curve with a large enough effect; inconclusive = small, poorly fitted or top-dose-only effect, or another doubt; inactive = no such curve, though single readings can be large or run the other way; also: series mostly up to about 120 µM
Target sequence (P11473 whole entry, looked up): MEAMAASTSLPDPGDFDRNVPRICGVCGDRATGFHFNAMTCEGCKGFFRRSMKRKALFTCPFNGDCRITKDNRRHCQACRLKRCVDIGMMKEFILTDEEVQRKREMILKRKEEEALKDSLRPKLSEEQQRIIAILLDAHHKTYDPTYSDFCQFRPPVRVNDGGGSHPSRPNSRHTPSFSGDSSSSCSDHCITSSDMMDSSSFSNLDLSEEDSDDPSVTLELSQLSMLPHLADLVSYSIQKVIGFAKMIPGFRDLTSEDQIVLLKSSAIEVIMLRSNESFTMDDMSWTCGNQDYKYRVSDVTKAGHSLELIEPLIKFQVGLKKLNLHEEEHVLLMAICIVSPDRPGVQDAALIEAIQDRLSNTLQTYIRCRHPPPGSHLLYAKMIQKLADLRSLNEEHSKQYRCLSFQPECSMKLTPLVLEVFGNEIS
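Inhibition of the VDR/SRC2-3 peptide interaction is quantified by fluorescence polarization. Compounds (23 nl, pintool) incubate with the reagents for 2 hours at ambient room temperature.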
* = called active by the depositor; ? = inconclusive; & = joins results of further samples; [ ] = remark or other dose. % is scaled to controls: 0 for no effect and ±100 for the full control effect; potency is read from the fitted curve at half-maximal effect. The list is partial; the hit share may differ from the screen's.

smiles | VDR inh
Cc1cc(C(=O)CN2C(=O)C(=O)N(Cc3ccccc3)C2=O)c(C)n1CC1COc2ccccc2O1 (centres undefined) | 4.8%
COc1cc(C(=O)Nc2ccc3c(c2)OCO3)ccc1OCc1c(C)noc1C | -2.5%
NS(=O)(=O)c1ccc(CCNC(=O)/C=C/c2ccc(S(=O)(=O)N3CCOCC3)cc2)cc1 | 0.2%
CCOc1c(OC(C)=O)ccc(/C=C2\N=C(SCC)SC2=O)c1[N+](=O)[O-] | ?
COc1cccc(NC(=O)CSC2=Nc3ccccc3C3=NC(CC(=O)NCc4cccs4)C(=O)N23)c1 (centres undefined) | 2.5%
COc1ccc(C(CNC(=O)CCNC(=O)c2ccccc2OC)N2CCCC2)cc1 (centres undefined) | -18.1%
Cc1cc(C)nc(N2CCC(C(=O)NCCc3ccc(Cl)cc3)CC2)n1 | -18.2%
CN(Cc1nc2ccccc2c(=O)[nH]1)C(=O)C1CC(=O)N(c2cccc3ccccc23)C1 (centres undefined) | 0.9%
CCN(C(=O)COC(=O)c1ccccc1SCC(=O)N1CCCC1)C1CCS(=O)(=O)C1 (centres undefined) | -15.8%
COC(=O)C(Cc1ccc(O)cc1)NC(=O)CCc1ccco1 (centres undefined) | 5.0%
CC(=O)Nc1ccc(NC(=O)CN(c2cc(Cl)ccc2Cl)S(C)(=O)=O)cc1 | -18.0%
CCOP(=O)(OCC)c1cccc(P(=O)(c2ccccc2)c2ccccc2)c1O | 6.6%

Another view of part of the listing above:
VDR inh	structure
-2.5%	COc1cc(C(=O)Nc2ccc3c(c2)OCO3)ccc1OCc1c(C)noc1C
0.2%	NS(=O)(=O)c1ccc(CCNC(=O)/C=C/c2ccc(S(=O)(=O)N3CCOCC3)cc2)cc1
?	CCOc1c(OC(C)=O)ccc(/C=C2\N=C(SCC)SC2=O)c1[N+](=O)[O-]
2.5%	COc1cccc(NC(=O)CSC2=Nc3ccccc3C3=NC(CC(=O)NCc4cccs4)C(=O)N23)c1 (centres undefined)
-18.1%	COc1ccc(C(CNC(=O)CCNC(=O)c2ccccc2OC)N2CCCC2)cc1 (centres undefined)
-18.2%	Cc1cc(C)nc(N2CCC(C(=O)NCCc3ccc(Cl)cc3)CC2)n1

The list continues.
smiles | VDR inh
O=C1c2ccccc2CC1Sc1nnc(-c2ccccn2)o1 (centres undefined) | ?
COC(=O)c1ccc(NC(=O)C2CCCN2C(=O)OCc2ccccc2)cc1 (centres undefined) | -2.0%
O=c1[nH]c(CSc2ncc(C(F)(F)F)cc2Cl)nc2cc(C(F)(F)F)ccc12 | 11.4%
O=C(Nc1ccccc1)Nc1snnc1C(=O)Nc1cccc(O)c1 | 21.6%
O=C(CN1CCCCCC1)N1c2ccccc2C=Cc2ccccc21 | 3.3%
Cc1ccc(S(=O)(=O)CCC(=O)NC2CCCC2)cc1 | -3.2%
Cc1ccc(NC(=O)CCS(=O)(=O)c2cc3c4c(c2)CCN4C(=O)CC3)c(C)c1 | 0.0%
Cc1ccc(C)c(CSCC(=O)NCc2cccs2)c1 | 13.9%
COc1cc(OC)c(/C=N/n2c(C)nnc2C)c(OC)c1 | 5.6%
CC(=O)Nc1sc(C)c(C)c1C(=O)OCC(=O)Nc1ccc(S(N)(=O)=O)cc1 | -13.6%
COCCN(CCOC)C(=O)c1ccc(CSc2nc3ccccc3s2)cc1 | ?
Nc1nc(CSc2nnc(-c3cccc(F)c3)n2-c2ccccc2)nc(N2CCOCC2)n1 | -7.1%
O=C(CSc1ncnc2c1oc1ccccc12)NC1CCCCC1 | -3.0%
O=C(COC(=O)C1CCC(=O)N1)Nc1ccccc1Br (centres undefined) | 22.4µM*
O=C(COC(=O)/C=C/c1ccccc1Cl)NC(=O)Cc1ccccc1 | 10.3%
c1ccc(COC2COC3C(OCc4ccccc4)COC23)cc1 (centres undefined) | 6.3%
O=C(CCl)Nc1ccccc1C(=O)Nc1ccc2c(c1)OCO2 | 6.0%
CC(/C=N/n1cnnc1)=C\c1ccco1 | 4.3%
CCCN(CC(=O)Nc1ccccc1OC)CC(=O)c1c(N)n(Cc2ccccc2)c(=O)n(C)c1=O | -5.8%
CN(C)/C=C(\C(=O)c1ccc(Cl)cc1)c1nnnn1-c1ccc(Cl)cc1 | 1.3%
O=C(NCCCn1ccnc1)/C(=C\c1cccs1)NC(=O)c1ccco1 | -6.8%
Cc1cccc(-c2nc3c(c(SCC(=O)N4CCOCC4)n2)Cc2c(CO)cnc(C)c2O3)c1 | -9.8%
CC(C)(C)c1ccc(C(=O)NC2=NC(c3cccc(F)c3)CC(=O)N2)cc1 (centres undefined) | 11.6%
COc1ccc(-n2nnnc2S(=O)(=O)CC(=O)N2CCCCC2)cc1 | ?
COc1ccccc1OCC#CCSc1ncccn1 | -24.8%
Cc1cc(C)c(NC(=O)CNC(=O)Cc2sc(C)nc2-c2ccc(F)cc2)c(C)c1 | -3.1%
C[C@]12CC[C@@H]3c4ccc(O)cc4CC[C@H]3[C@@H]1C[C@@H](O)[C@@H]2O | -9.6%
O=C(CCC(=O)N1CCN(S(=O)(=O)c2ccc(Cl)cc2)CC1)NCc1ccccc1 | 0.2%
O=C(CSc1ncccc1-c1nc2ccccc2[nH]1)NCc1ccco1 | ?
CC(C)OCCCN1CC(=O)N2[C@@H](Cc3c([nH]c4ccccc34)C2(C)C)C1=O | 2.0%
COc1ccccc1-c1noc(Cn2cc(S(=O)(=O)N3CCCC3)ccc2=O)n1 | -1.9%
Cc1ncc(C(=O)O)c(C(=O)O)c1N | -6.2%
CC(=O)c1ccc(OC(=O)c2c(-c3ccccc3Cl)noc2C)cc1 | -13.6%
Cc1ccc(NCc2cccn2-c2nnc(N3CCC(C(=O)NCCC(C)C)CC3)s2)cc1 | -5.0%
CCc1nnc(SCc2nc(-c3cccc(Cl)c3)oc2C)c2cc3sc(C)cc3n12 | 3.6%
Cc1ccc(OCCCC(=O)N2CCOCC2)c(C)c1 | 11.7%
CN1CCN(C(=O)CCN2C(=O)/C(=C/c3cccc(Br)c3)SC2=S)CC1 | -19.2%
O=C(CSc1nc(C2CCCCC2)nc2ccccc12)NCc1ccc2c(c1)OCO2 | -21.1%
Cc1cc(S(=O)(=O)N2CCN(Cc3ccccc3)CC2)c(C)s1 | -18.4%
Cc1cc(=O)n2[nH]c(SCc3ccc(Cl)cc3)nc2n1 | -13.8%
COc1ccc(C2(C(=O)Nc3ccc(C(=O)O)cc3)CCOCC2)cc1 | 7.3%
COc1cccc(N2CCN(C(=O)c3cnc4c(-c5ccc(F)cc5)c(C)nn4c3C)CC2)c1 | -0.5%
CCOC(=O)C(=Cc1ccc(-n2cncn2)cc1)C(=O)OCC | 15.8µM*
O=C(COc1cccnc1[N+](=O)[O-])Nc1cccc2ccccc12 | -4.1%
CCCCN(CCCC)C(=O)c1nsnc1-c1ccccc1O | -2.4%
CCOC(=O)C1(CC2CCCCO2)CCN(C(=O)Nc2ccc(SC)cc2)CC1 (centres undefined) | 10.5%
Cc1noc(C)c1-c1cc(NCCN2CCOCC2)ncn1 | ?
CSCc1cc(N(C)C)nc(SCc2ccc(Cl)c(Cl)c2)n1 | -11.0%
O=C(NC(=S)N1CCN(c2ccc([N+](=O)[O-])cc2)CC1)c1ccc(F)cc1 | -11.5%
Cc1cc(C(=O)CSc2nc(N)cc(=O)[nH]2)c(C)n1CC1CCCO1 (centres undefined) | 3.8%
CCN(CCCNC(=O)c1cc2c(-c3cccc(OC)c3)nn(C)c2s1)Cc1ccccc1 | -5.7%
COc1ccc(C=O)cc1CN1C(=O)c2ccccc2C1=O | -26.4%
CC(=O)Nc1cc(N=Cc2ccc(O)cc2O)c(Cl)cc1Cl | -12.8%
COc1cccc(/C=C2/CCC(CN(C)C)C2=O)c1 (centres undefined) | 39.8µM*
CCN1CCC(CN2CCNC2=S)CC1 | -19.9%
O=C(c1ccc(S(=O)(=O)N2CCCC2)cc1)N1CCCC(C(F)(F)F)C1 (centres undefined) | 7.3%
CCCCN(C(=O)c1ccc(NC2CC2)c([N+](=O)[O-])c1)c1c(N)n(CC(C)C)c(=O)[nH]c1=O | 26.5%
Cn1cnc2c(NCc3ccccc3)nc(Cl)nc21 | 13.6%
COc1cc2c3nnc(-c4ccc(F)cc4)c-3cn(Cc3cccc(F)c3)c2cc1OC | 65.8%[activator]
CCOC(=O)CN1C2=NCCN2c2ccccc21 | 13.4%

(listing goes on)
smiles | VDR inh
COc1ccc(CCNC(=O)c2cc3c(=O)n4cccc(C)c4nc3n(CCCN3CCOCC3)c2=N)cc1 | -11.1%
OCCNCc1ccc(OCc2ccc(Cl)cc2Cl)cc1 | -4.1%
COC(=O)[C@H](Cc1ccccc1)NC(=O)O[C@H]1C(=O)c2ccc(OC)cc2O[C@@H]1c1ccc2c(c1)OCO2 | 0.8%&-13.8%
CC(OC(=O)/C(C#N)=C/c1ccc(N(C)C)cc1)C(=O)N(C)c1ccccc1 (centres undefined) | 8.6%
CCc1ccccc1NC(=O)C1CCCN(S(=O)(=O)c2ccc3c(c2)CC(C)N3C(C)=O)C1 (centres undefined) | -24.2%
Cc1nn(C)c(C)c1NC(=O)CC12CC3CC(CC(C3)C1)C2 | -0.4%
NC(=O)c1ccc(NC(=O)CN2C(=O)NC(c3ccccc3)(c3ccccc3)C2=O)cc1 | -6.2%
COc1ccc2nc3oc(C(=O)Nc4ccc(OC)c(OC)c4)cc3cc2c1 | -1.2%
CCOc1ccc(C(=O)c2ccncc2)cc1 | 0.4%
CCOC(=O)/C(=C/c1c2ccccc2cc2ccccc12)NC(=O)c1ccccc1 | -11.3%
O=C1CN(C(=O)CC2C(=O)NCCN2Cc2ccccc2C(F)(F)F)CCN1 (centres undefined) | -0.3%
C/C(=N\NC(=O)COc1ccc(C#N)cc1)c1ccc(N2CCOCC2)cc1 | -2.1%
COc1ccc(Cl)cc1NS(=O)(=O)c1cc(Br)cnc1N | -11.6%
Cc1ccccc1-c1nc(CS(=O)(=O)CC(=O)N2CCN(C)CC2)c(C)o1 | -5.9%
CCOc1cc(/C=C(\C#N)C(=O)Nc2cccc(C(=O)O)c2)ccc1OCc1ccc(Br)cc1 | -6.7%
O=[N+]([O-])c1cccc(CSc2cccc[n+]2[O-])c1 | -31.6%
CCOC(=O)c1cc(-c2ccc(OC)cc2)n(CCC(=O)NCc2ccc(OC)cc2)c1C | 7.2%
CCC(=O)Nc1cccc(NC(=O)CSc2nnnn2C2CCCC2)c1 | -10.5%
CC(=O)Nc1ccc(S(=O)(=O)Nc2nc3nc(-c4ccccc4)cc(-c4ccccc4)n3n2)cc1 | -0.6%
CC(C)=C1C(=O)NN(c2ccc(C)c(Cl)c2)C1=O | 10.2%
O=C(NCc1ccccc1Cl)c1cnccc1C(F)(F)F | -6.0%
CCSc1nnc(N2C(=O)CC(c3ccsc3)C3=C2CC(C)(C)CC3=O)s1 (centres undefined) | -6.9%
CC(=O)N(CCc1ccccc1)Cc1cc2cc(C)ccc2[nH]c1=O | -13.4%
CCOC(=O)c1c(C)oc2ccc(OS(C)(=O)=O)cc12 | 11.8%

Two of the compounds above, with the structure last:
VDR inh	structure
7.3%	COc1ccc(C2(C(=O)Nc3ccc(C(=O)O)cc3)CCOCC2)cc1
-0.5%	COc1cccc(N2CCN(C(=O)c3cnc4c(-c5ccc(F)cc5)c(C)nn4c3C)CC2)c1

(next part)
smiles | VDR inh
COc1ccccc1-c1nnc(SCC(=O)c2ccc(F)cc2)n1-c1ccccc1 | 17.6%
Cc1ccc(CN(C)C(=O)CN2C(=O)NC3(CCCc4ccccc43)C2=O)c(C)c1 (centres undefined) | 0.4%
COc1ccc(-c2c(C(=O)O)nc3ccccc3c2C(=O)O)cc1 | -17.9%
Cc1cc(OCc2cc(C(=O)N(C)C3CCOC3)no2)cc(C)c1Cl (centres undefined) | -4.7%
CCN(CC)CCCN(Cc1cc2ccc(C)c(C)c2[nH]c1=O)C(=O)NC1CCCCC1 | 24.7%
CC(NCC(O)COc1ccc(Br)cc1)c1ccccc1 (centres undefined) | ?
CC1CCCN(C(=O)Cn2nnc(-c3ccc(F)cc3)n2)C1 (centres undefined) | -13.9%
CC1Cc2ccccc2N1C(=O)CSc1ccccc1 (centres undefined) | -2.9%
COc1ccc(-c2c(C3C4C=CCC(C)C4C(=O)N3Cc3ccccc3)ccc3ccccc23)cc1OC (centres undefined) | -12.1%
COC(=O)C1C(O)=C(C=Nc2ccc3ccccc3c2)C(=O)CC1(C)C (centres undefined) | -17.1%
O=C(NNc1nc2ccccc2s1)Nc1ccc(Cl)c(Cl)c1 | -19.0%
CC(C)NC(=O)NC(=O)COc1c(F)c(F)cc(F)c1F | 11.1%
COc1ccc(S(=O)(=O)N2CCCCCC2)cc1Br | -6.1%
CC1CCCCC1NC(=S)Nc1ccc(SC(F)F)cc1 (centres undefined) | -1.5%
Cc1cc(C)c(C#N)c(SCc2c(F)cccc2[N+](=O)[O-])n1 | -3.6%
N/C(=N\OCC(=O)Nc1ccc(F)c(Cl)c1)c1ccccc1 | -18.3%
CCN(CC)S(=O)(=O)c1ccc(NC(=O)c2ccc3c(=O)n4c(nc3c2)CCCCC4)cc1 | 1.8%
Cc1csc(/C(C#N)=N/O)n1 | -6.5%
CCOC(=O)C1=C(COC(=O)/C=C/c2ccco2)NC(=O)NC1C (centres undefined) | -20.2%
Cc1cc(S(=O)(=O)Nc2ccc(C(=O)NCCCN3CCCC3=O)cc2)ccc1F | 1.1%
COC(=O)CCC(=O)OC1(C)C(=O)C=C2C=C(C3CC3)OC=C2C1=O (centres undefined) | 2.3%
Cc1ccc(NC(=O)C(C)Sc2nc3nc(C)cc(C)n3n2)cc1 (centres undefined) | -17.1%
O=C(Nc1nnc(-c2ccccc2)s1)C1CCCN(C(=O)c2ccoc2)C1 (centres undefined) | 44.7µM*
CSc1ccc(-c2ccco2)nn1 | -14.7%
COc1cc(OC)cc(C(=O)NNC(=O)C2CSC3(C)CCC(=O)N23)c1 (centres undefined) | 3.8%
